Mtb betalactam: beta-lactam sensitization of Mtb H37Rv; M. tuberculosis H37Rv growth with meropenem, percent inhibition; hits of this screen are not shown here; inhibition, % at 25 µM; 0.27% of 330,000 active; AID 434955;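 active means about 74% or more and at least 40 points above the plate without the antibiotic, then above 30% in a dose series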;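 further: growth measured after seven days incubation then overnight dye step; 0% = bacteria only wells and 100% = bacteria with antibiotic; twin plates without the antibiotic show which effects depend on it; some results filed as inactive read as strong as hits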
YopH PTP inh: blocks Yersinia enterocolitica YopH tyrosine phosphatase. inhibition, %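 (about 10 µM by stock and volumes)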. fluorescence Ex485/Em525. AID 898. 0.16% of 140,000 active;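 active means inhibition of 50% or more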;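 further: controls were vehicle for no effect and minimum signal wells for full effect; inactives centre near -20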
RecA splice inh: Mtb RecA intein splicing inhibition. P9WHJ3. cell-free RecA intein splicing, fluorescence. inhibition, %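 (about 9 µM by stock and volumes)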. 0.75% of 290,000 active. AID 2221; in the data active means inhibition above about 30%;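 further: 0% = vehicle wells and 100% = reference inhibitor control wells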
Target sequence (P9WHJ3 whole entry, looked up, canonical isoform): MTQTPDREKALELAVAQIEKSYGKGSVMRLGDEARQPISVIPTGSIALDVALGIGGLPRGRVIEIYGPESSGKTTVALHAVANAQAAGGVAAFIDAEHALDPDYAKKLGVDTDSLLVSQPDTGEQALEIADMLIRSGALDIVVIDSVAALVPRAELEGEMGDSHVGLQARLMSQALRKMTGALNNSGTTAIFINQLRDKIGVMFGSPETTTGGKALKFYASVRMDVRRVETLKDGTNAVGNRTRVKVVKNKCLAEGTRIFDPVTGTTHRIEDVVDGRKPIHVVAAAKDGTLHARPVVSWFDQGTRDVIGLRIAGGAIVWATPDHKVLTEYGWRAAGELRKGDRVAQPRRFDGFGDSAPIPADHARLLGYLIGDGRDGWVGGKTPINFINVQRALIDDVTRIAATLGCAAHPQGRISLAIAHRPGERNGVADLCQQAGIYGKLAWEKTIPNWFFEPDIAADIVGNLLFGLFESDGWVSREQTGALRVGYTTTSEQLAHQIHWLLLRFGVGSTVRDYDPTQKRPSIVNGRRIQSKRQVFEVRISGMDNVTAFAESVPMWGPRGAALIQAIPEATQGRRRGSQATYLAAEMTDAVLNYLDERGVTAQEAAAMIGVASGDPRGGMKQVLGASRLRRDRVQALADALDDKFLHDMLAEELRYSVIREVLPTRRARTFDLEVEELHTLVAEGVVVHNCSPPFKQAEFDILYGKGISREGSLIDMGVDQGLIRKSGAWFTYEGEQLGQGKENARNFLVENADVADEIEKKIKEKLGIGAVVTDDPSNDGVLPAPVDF
Mtb H37Rv: M. tuberculosis H37Rv growth inhibitors, H37Rv strain (AID 1626); M. tuberculosis H37Rv growth inhibition; higher % means a stronger effect; inhibition, % at 10 µM, or IC50 in µM where a hit was titrated; 0.95% of 220,000 active;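 active means confirmed in a dose series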;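 further: bacteria incubated seven days before Alamar blue readout; 0% = bacteria only wells and 100% = bacteria with antibiotic wells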
Arbovirus anti: arbovirus infection inhibition; arbovirus infection cell-based antiviral screen; inhibition, % at 10 µM; 0.37% of 200,000 active;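 active means inhibition from about 30%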;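 further: bluetongue infection of BSR cells; cell survival read as ATP light after 72 h; 0% = infected wells without compound and 100% = uninfected wells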
Arbovirus anti repeat: also measured in Arbovirus anti; calls as there; inhibition, %; measured here: 10K subset replicate screen; many hits read low in the repeat;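 first of two repeat runs on a subset; 0% = infected and 100% = uninfected wells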
The depositor's hits bear a star; . = not tested or not shown. This is a subset (hit frequency here may not be typical).

Preview:
SMILES	Mtb betalactam	YopH PTP inh	RecA splice inh	Mtb H37Rv	Arbovirus anti	others
CCC(CC)c1nnc(NC(=O)c2cccc(S(=O)(=O)N3CCc4ccccc43)c2)s1	2	-16	4.7	0%	-23
O=C(O)CSc1nc2ccccc2n1Cc1ccccc1	-11	.	-2.4	.	.
COC(=O)c1cc(S(=O)(=O)Nc2c(C)cccc2C)cn1C	0	.	4.1	.	.
CN(C)c1ccc(/C=N/n2c(COc3ccccc3)n[nH]c2=S)cc1	2	-19	-0.3	7%	-2
Cc1nn(-c2ccccc2)c(N)c1N=O	-3	.	-12	-3%	.
CN(C)S(=O)(=O)Oc1cccc(C(=O)Nc2ccc(Cl)c(Cl)c2)c1	3	-33	.	-15%	-7
CC(C)(C)OC(=O)N/N=C\c1ccc[nH]1	-10	.	2.9	.	4
CCCCOc1ccc(-c2c(C#N)c(N)[nH]c(=S)c2C#N)cc1	8	.	3.7	2%	.
COc1ccccc1Oc1nc(C)c(C(C)=O)cc1C#N	1	.	0.5	.	-1
CCOc1ccc(CC(=O)NNC(=S)NC)cc1Br	-7	.	.	-5%	.
CCCCn1c(N)c(N(CCOC)C(=O)CSc2nnc(-c3ccc(F)cc3)n2N)c(=O)[nH]c1=O	-10	.	0.3	.	.
O=C(Cc1ccc(Cl)cc1)NNC1CC(=O)N(c2ccc3ccccc3c2)C1=O (centres undefined)	-7	.	-3.1	-11%	.
Cc1cccc(OCC(=O)Nc2ccc(NC(=O)c3ccco3)c(C)c2)c1	-9	.	1.4	.	.
CCCN1C(=O)S/C(=C\c2ccc(N3CCOCC3)cc2C)C1=O	.	13	.	-5%	-3
CCCN1CCC(=O)N(CCSc2ccc(C)cc2)CC1	.	.	2.0	-6%	.
CCOC(=O)C1=C(C)N=C2SC(C)C(=O)N2C1c1ccc(OC(C)=O)c(OC)c1 (centres undefined)	-7	-23	0.9	1%	-1
COc1cccc(CNC(=O)CCNS(=O)(=O)c2cccs2)c1	-4	-34	6.2	6%	13
CCCC(C)NC(=O)Cc1ccccc1 (centres undefined)	-8	.	-2.9	9%	.
COc1cc(CN2CCN(CCc3ccccc3)C(CCO)C2)cc(OC)c1 (centres undefined)	-1	.	-0.7	-1%	5
COc1ccc(CNc2ccc(-c3ccc(OC)cc3)nn2)cc1	-4	-46	-0.9	-2%	-33
O=C(NCC(c1ccco1)N1CCCC1)c1sc2ccccc2c1Cl (centres undefined)	7	.	-9.7	.	.

All compounds of this part, from the start:
SMILES	Mtb betalactam	YopH PTP inh	RecA splice inh	Mtb H37Rv	Arbovirus anti	others
CCC(CC)c1nnc(NC(=O)c2cccc(S(=O)(=O)N3CCc4ccccc43)c2)s1	2	-16	4.7	0%	-23
O=C(O)CSc1nc2ccccc2n1Cc1ccccc1	-11	.	-2.4	.	.
COC(=O)c1cc(S(=O)(=O)Nc2c(C)cccc2C)cn1C	0	.	4.1	.	.
CN(C)c1ccc(/C=N/n2c(COc3ccccc3)n[nH]c2=S)cc1	2	-19	-0.3	7%	-2
Cc1nn(-c2ccccc2)c(N)c1N=O	-3	.	-12	-3%	.
CN(C)S(=O)(=O)Oc1cccc(C(=O)Nc2ccc(Cl)c(Cl)c2)c1	3	-33	.	-15%	-7
CC(C)(C)OC(=O)N/N=C\c1ccc[nH]1	-10	.	2.9	.	4
CCCCOc1ccc(-c2c(C#N)c(N)[nH]c(=S)c2C#N)cc1	8	.	3.7	2%	.
COc1ccccc1Oc1nc(C)c(C(C)=O)cc1C#N	1	.	0.5	.	-1
CCOc1ccc(CC(=O)NNC(=S)NC)cc1Br	-7	.	.	-5%	.
CCCCn1c(N)c(N(CCOC)C(=O)CSc2nnc(-c3ccc(F)cc3)n2N)c(=O)[nH]c1=O	-10	.	0.3	.	.
O=C(Cc1ccc(Cl)cc1)NNC1CC(=O)N(c2ccc3ccccc3c2)C1=O (centres undefined)	-7	.	-3.1	-11%	.
Cc1cccc(OCC(=O)Nc2ccc(NC(=O)c3ccco3)c(C)c2)c1	-9	.	1.4	.	.
CCCN1C(=O)S/C(=C\c2ccc(N3CCOCC3)cc2C)C1=O	.	13	.	-5%	-3
CCCN1CCC(=O)N(CCSc2ccc(C)cc2)CC1	.	.	2.0	-6%	.
CCOC(=O)C1=C(C)N=C2SC(C)C(=O)N2C1c1ccc(OC(C)=O)c(OC)c1 (centres undefined)	-7	-23	0.9	1%	-1
COc1cccc(CNC(=O)CCNS(=O)(=O)c2cccs2)c1	-4	-34	6.2	6%	13
CCCC(C)NC(=O)Cc1ccccc1 (centres undefined)	-8	.	-2.9	9%	.
COc1cc(CN2CCN(CCc3ccccc3)C(CCO)C2)cc(OC)c1 (centres undefined)	-1	.	-0.7	-1%	5
COc1ccc(CNc2ccc(-c3ccc(OC)cc3)nn2)cc1	-4	-46	-0.9	-2%	-33
O=C(NCC(c1ccco1)N1CCCC1)c1sc2ccccc2c1Cl (centres undefined)	7	.	-9.7	.	.
COC(=O)c1c(C)oc(C)c(C(=O)OC)c1=O	3	-28	2.0	-8%	2
CC1CCN(C(=O)c2cc(Cl)nc3ccccc23)CC1	-6	-28	-5.5	0%	-3
C=CCc1cccc(CNn2cnnc2)c1O	1	.	-2.9	.	.
CC(C)(C)/C(Cn1cncn1)=N\OC(=O)Nc1ccc(Cl)cc1	5	-16	.	-7%	-10
Additional records.
SMILES	Mtb betalactam	YopH PTP inh	RecA splice inh	Mtb H37Rv	Arbovirus anti	others
CCCCC(=O)Nc1ccc(NC(=O)c2ccc([N+](=O)[O-])cc2)cc1OC	0	-47	-2.1	6%	-1
CCCCn1c(=O)[nH]c(=O)c2c1nc(-c1ccc(OCCC)c(OCC)c1)n2CCOC	2	.	1.3	-4%	4
CNC(=S)N/N=C/c1c(C)nn(-c2ccc(F)cc2)c1Cl	-1	.	1.4	2%	-2
COc1ccc(N=C2NC(=O)/C(=C\C=C\c3ccco3)S2)cc1	.	.	15	1%	2
CCCc1nnc(NC(=O)CC(=O)OCC)s1	7	-24	4.3	3%	3	Arbovirus anti repeat=2
O=[N+]([O-])c1cccc(-c2nnc3c4ccccc4c4ccccc4n23)c1	0	6	-1.3	0%	-2
CC1CC(N(C(=O)C2CC2)c2ccccc2)c2ccccc2N1C(=O)C1CC1 (centres undefined)	-2	-4	17	1%	-3
C/C(=N\Nc1ccc2nncn2n1)c1cccs1	5	.	-2.3	-3%	.
CC(=O)Oc1ccc(/C=N/NC(=S)Nc2ccccc2)cc1	6	-19	4.0	-3%	-7
O=C(NCc1ccc(C(F)(F)F)cc1)C1CC(c2ccccc2[N+](=O)[O-])=NO1 (centres undefined)	-1	-35	-3.9	2%	1
Cc1cc2oc(=O)c3c(c2cc1OC(=O)c1ccco1)CCCC3	0	-13	-2.4	-15%	3
O=C(CSc1ccccn1)Nc1ccc2c(c1)C(=O)c1ccccc1C2=O	82	0	1.7	3%	-25
Cc1cccc(C(=O)Nc2ccc(C(=O)/C=C/c3cccnc3)cc2)c1	99	-26	20	6µM*	-31
CCNC(=O)CCCOc1ccc(Cl)cc1Cl	-13	-30	2.4	-9%	-5
Cc1[nH]c2ccccc2c1C(=O)CN1CC(C)CC(C)C1 (centres undefined)	-6	.	1.9	.	.
Cc1ccc(Nc2nnc(C3C(=O)N(C)C4(C)CC3c3cc(Br)ccc3O4)s2)cc1 (centres undefined)	84	-20	-2.6	9%	18
O=C(c1ccco1)N1CCN(C(c2ccccc2F)c2nnnn2Cc2cccs2)CC1 (centres undefined)	3	-22	4.4	-11%	-2
Cc1cc(C(=O)CSc2nc3ccccc3c(=O)[nH]2)c(C)n1C	-11	-26	-1.8	0%	-3
Cc1ccc(NC(=S)N2CCC(c3nc4ccccc4s3)CC2)cc1	7	-35	.	6%	11
CN(C)/C=C(\C(=O)c1ccccc1)c1nnnn1-c1ccccc1	-6	.	-7.7	-9%	.
Cc1cc(C)nc(SCc2c(F)cccc2Cl)n1	2	.	-0.3	.	.
O=c1c2ccccc2nc(SCc2cccc(F)c2)n1-c1cccc(S(=O)(=O)N2CCCC2)c1	-3	0	5.2	1%	6
O=C(c1ccc2c3c(cccc13)C(=O)N(O)C2=O)N1CCCCC1	-4	4	-0.9	14%	-30
CC(=O)NC(C)c1nc2ccccc2n1CC(=O)N1C(C)CCCC1C (centres undefined)	3	.	0.5	1%	0
Oc1ccc(C[C@H]2NCCc3cc(O)c(O)cc32)cc1O	8	.	-1.0	.	.

Arranged by length of the SMILES (high to low): 3 of the compounds above.
SMILES	Mtb betalactam	YopH PTP inh	RecA splice inh	Mtb H37Rv	Arbovirus anti	others
Cc1cccc(C(=O)Nc2ccc(C(=O)/C=C/c3cccnc3)cc2)c1	99	-26	20	6µM*	-31
O=C(CSc1ccccn1)Nc1ccc2c(c1)C(=O)c1ccccc1C2=O	82	0	1.7	3%	-25
CC(=O)Oc1ccc(/C=N/NC(=S)Nc2ccccc2)cc1	6	-19	4.0	-3%	-7

Further compounds follow.
SMILES	Mtb betalactam	YopH PTP inh	RecA splice inh	Mtb H37Rv	Arbovirus anti	others
CC1=Cc2ccccc2C(C#N)N1C(=O)c1ccccc1 (centres undefined)	-2	-23	8.3	6%	-13
COC(=O)c1ccc(CNC(=O)C2CCC(=O)N(C3CCCCCC3)C2)cc1 (centres undefined)	1	.	-1.6	.	.
COc1cc(C(=O)NCc2ccc(C)cc2)ccc1OCc1c(C)noc1C	2	-50	1.3	1%	0
COc1ccc(OCC(O)CNC(=O)Nc2cccc3ccccc23)cc1 (centres undefined)	-3	.	-1.2	4%	.
CCC(C)(C(=O)NC1CCCC1)N(C(=O)c1cnccn1)c1c(C)n(C)n(-c2ccccc2)c1=O (centres undefined)	-7	6	-0.6	3%	4
C/C(=N\NC(=O)c1ccccc1C)c1cccnc1	6	.	-2.3	.	.
CCn1c(SCC(=O)Nc2cccc(NC(C)=O)c2)nnc1C(C)C	-4	2	0.9	-10%	1
Cc1ccc(-c2csc(NC(=O)c3cccc([N+](=O)[O-])c3)n2)cc1	7	-20	-2.8	.	-8
Cc1cc(C(F)(F)F)n2[nH]c(=O)c(N=Nc3ccccc3)c2n1	7	.	-3.0	0%	-1
C/C(=N\NC(=O)c1cccc(N2CCCC2=O)c1)c1ccc(N)cc1	-9	.	-1.2	-4%	10
Cc1ccc(C(=O)c2c[nH]c(C(=O)NCc3cccnc3)c2)cc1	-13	-8	0.3	0%	0
C=CCNc1nc(N)c([N+](=O)[O-])c(N2CCCCCC2)n1	2	.	3.4	.	.
CCC(C(=O)Nc1ccc2c(c1)OCCO2)c1ccccc1 (centres undefined)	1	.	2.9	-2%	-1
CC(=O)c1c2c3c(cccc3n(C)c1=O)C(=O)c1ccccc1-2	9	.	3.8	.	.
O=C(Cc1c(F)cccc1Cl)NCC(=O)OCc1ccccc1	-1	.	-1.6	.	.
COc1ccccc1-c1noc(CCC(=O)NC2CCCC2)n1	-4	.	-0.2	.	.
Cc1cc(C(=O)N2CCc3c([nH]c4ccccc34)C2c2c(F)cccc2Cl)no1 (centres undefined)	-5	.	0.5	52%	17
COC(C/C=C\C(=O)COCc1ccccc1)OC	22	.	9.1	-9%	.
O=C(CN1C(=O)c2ccccc2C1=O)Nc1ccc(S(=O)(=O)N2CCOCC2)cc1	-6	.	-4.0	-2%	3
CC(C)(C)c1ccc(C(=O)NCCC(=O)NCc2cccs2)cc1	4	.	0.8	.	.
COCC(=O)Nc1nc(-c2ccc(C)cc2)c(C)s1	5	-18	2.0	1%	-3
COc1ccc(NC(=O)Cn2cnc3c(nnn3-c3ccc(C)cc3)c2=O)cc1	2	.	2.8	7%	-11
O=C(O)C/C=C(/NC(=O)OCc1ccccc1)C(=O)OCc1ccccc1	-2	.	3.1	-1%	0
CCc1c(C)nc2cc(C)[nH]n2c1=O	0	4	1.5	7%	0
COc1ccc(OC)c(NC(=O)CN(C)CC(=O)Nc2ccccc2Br)c1	-8	.	-3.1	-2%	4
Cc1ccc(S(=O)(=O)c2nc(S(C)(=O)=O)sc2N2CCCCCC2)cc1	-3	.	-7.0	.	.
COc1ccccc1CCNC(=O)C(=O)NCC1OCCN1S(=O)(=O)c1cccs1 (centres undefined)	-3	.	-2.5	.	.
COc1ccc(OC)c(-n2c(-c3cccc(O)c3)n[nH]c2=S)c1	3	-5	-3.9	-5%	12
CCOP(=O)(OCC)c1nc(-c2cccc3ccccc23)oc1NCc1ccccc1	2	-33	.	-2%	-4
